# eIF4H FP inh – inhibitors of RNA binding by human eIF4H | inhibition, % at 35 µM | Q15056 | eIF4H fluorescence polarization binding assay | AID 2012 | 290,000 tested, 0.94% active;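 active = 50% or more with normal probe brightness, or confirmed in later tests; about a fifth of its hits are not listed in these tables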;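 also: calls also rest on retests at 20 µM and on dose response follow-up; 0% = protein and probe with vehicle and 100% = probe without protein; strong numbers were not always called active; many hits fall short of the cut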
# Rce1 inh – blocks yeast Ras-converting enzyme. Q03530. yeast membranes, quenched prenylated peptide cleavage fluorescence. calls only. 290,000 tested, 0.27% active;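 active = fall in fluorescence gain of 50% or more versus controls, with final raw signal at or below 3038400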;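 also: plate controls were neutral control wells for no effect and wells lacking membranes for full effect; tested at 10 µM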
# Target sequence (Q03530 whole entry, looked up): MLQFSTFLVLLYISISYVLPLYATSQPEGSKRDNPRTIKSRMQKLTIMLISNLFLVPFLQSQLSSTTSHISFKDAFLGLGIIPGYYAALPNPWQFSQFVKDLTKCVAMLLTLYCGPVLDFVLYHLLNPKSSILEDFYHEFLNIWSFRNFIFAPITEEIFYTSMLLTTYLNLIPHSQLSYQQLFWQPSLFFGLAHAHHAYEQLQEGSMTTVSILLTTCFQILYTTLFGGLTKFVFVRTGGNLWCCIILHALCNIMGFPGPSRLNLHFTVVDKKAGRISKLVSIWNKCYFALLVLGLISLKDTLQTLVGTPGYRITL
# MT1-MMP act inh – inhibitors of human MT1-MMP activation; P50281; HT1080 RFP-PRO-GFP cells, GFP/RFP ratio fluorescence, overnight; percent of plate control window, DMSO zero; GFP/RFP ratio change, % at 20 µM; 360,000 tested, 0.061% active;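 active = GFP/RFP ratio change of at least 30% with cell ATP level not reduced by more than half and red fluorescence within 50% of control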; also: strong numbers were not always called active
#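 Assay system: RFP-PRO-GFP reporter HT1080 cells; read-out basis: GFP/RFP fluorescence ratio; benchmarks: DMSO wells and RFP-L50D-GFP cells; doses: 20 µM single dose, 1% DMSO; schedule: overnight cell settling, then overnight compound exposure, 37 °C, 5% CO2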
# CSC inhib – blocks cancer stem cells; cancer stem cell-like cells viability, luminescence; inhibition, % at 7.5 µM; 300,000 tested, 1.1% active;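 active = mean at 75% or more and at least half the replicates too; tested in HMLE shEcad cells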;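 also: 0% = median of negative and 100% = median of positive control wells; the first replicate is given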
# UUG fidelity – alters start codon recognition fidelity in yeast; S. cerevisiae UUG-firefly luciferase reporter, luminescence/redox ratio; activity score, % at 18.7 µM; 350,000 tested, 0.13% active; AID 602363;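 active = replicate mean at a twofold rise or more, about +100% in these data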;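 also: firefly luciferase made from a UUG start codon reports start codon fidelity; reporter light over untreated wells divided by growth signal over untreated wells; some hits fall short of that in this replicate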
# HIV Env fusion – HIV envelope-mediated fusion inhibition; HeLa-JRFL Env/CEM21 cell fusion, luciferase; inhibition, % at 12.3 µM; 360,000 tested, 1.1% active;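 active = mean replicate inhibition score of at least 50 and every replicate individually at or above 50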;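 also: 0% = plate neutral controls and 100% = maraviroc near 300 nM; one replicate is shown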
# PABP FP inh – blocks human PABP binding to poly(A) RNA | P11940 | fluorescence polarization | inhibition, % at 35 µM | 290,000 tested, 1% active;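 active = 50% or more with normal probe brightness, or confirmed in later tests; about a fifth of its hits are not listed in these tables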;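 also: calls also rest on retests at 20 µM and on dose response follow-up; controls were probe without protein and protein plus probe with vehicle; some compounds called inactive have numbers as strong as hits; many hits fall short of the cut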
# Target sequence (P11940 whole entry, looked up): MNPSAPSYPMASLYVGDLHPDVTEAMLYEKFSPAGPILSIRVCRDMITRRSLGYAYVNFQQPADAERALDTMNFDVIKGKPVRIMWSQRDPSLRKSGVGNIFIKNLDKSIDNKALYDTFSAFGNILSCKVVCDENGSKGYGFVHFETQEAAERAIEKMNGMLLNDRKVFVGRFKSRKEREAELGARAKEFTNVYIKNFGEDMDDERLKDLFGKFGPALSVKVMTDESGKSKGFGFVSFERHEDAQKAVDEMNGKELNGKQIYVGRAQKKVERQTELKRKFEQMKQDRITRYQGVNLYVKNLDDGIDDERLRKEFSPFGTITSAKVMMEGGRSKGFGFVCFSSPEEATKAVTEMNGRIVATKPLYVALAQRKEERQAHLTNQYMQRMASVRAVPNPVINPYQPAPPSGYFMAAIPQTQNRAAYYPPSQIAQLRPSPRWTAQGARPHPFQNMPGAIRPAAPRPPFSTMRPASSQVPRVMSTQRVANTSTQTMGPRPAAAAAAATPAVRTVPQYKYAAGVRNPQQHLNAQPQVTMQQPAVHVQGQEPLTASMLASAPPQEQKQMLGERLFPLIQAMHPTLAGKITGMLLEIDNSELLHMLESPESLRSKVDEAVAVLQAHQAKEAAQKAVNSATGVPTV
# eIF4H FP inh retest – also measured in eIF4H FP inh; calls as there; inhibition, %; compound at 20 µM; confirmation average;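 mean of two retest wells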
# PABP FP inh retest – further read-out of PABP FP inh, marked with its call; inhibition, %; compound at 20 µM; confirmation repeats;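 mean of two retest wells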
# MT1-MMP act inh RFP – also measured in MT1-MMP act inh; calls as there; RFP signal change, %; measured here: RFP expression control read;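 0 = vehicle wells; hits needed this value within 50% of zero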
# Starred values were filed as active, the others as inactive; i = inactive; . = no result given; + = active, no number. This is a random part of the collection (roughly 2.9% active in at least one column).
SMILES,eIF4H FP inh,Rce1 inh,MT1-MMP act inh,MT1-MMP act inh RFP,CSC inhib,UUG fidelity,HIV Env fusion,PABP FP inh,others
Cc1ccc(NC(=O)CCCn2c(=O)[nH]c3ccsc3c2=O)cc1,-2,i,1,-1,-1,-3,.,-11,
COCc1nnc(NC(=O)c2sc3ccccc3c2Cl)s1,-4,i,5,5,5,-17,-31,6,
CCc1ccc(N(C(=O)c2csnn2)C(C(=O)NC(C)(C)C)c2ccncc2)cc1 (stereo not given),5,i,5,1,-29,-6,.,-4,
CCCS(=O)(=O)NC(=O)C1(C)CCCN(C(=O)c2cc(-c3cccs3)oc2C)C1 (stereo not given),.,.,3,-2,.,11,-42,.,
Cc1ccc(S(=O)(=O)N2CCC(C(=O)NCc3ccccc3CN3CCCC3)CC2)cc1C,.,.,-2,-3,.,-6,3,.,
Cc1nc2sccn2c(=O)c1S(=O)(=O)NCc1ccccc1,-8,i,3,0,.,-8,-2,0,
Cc1nn(C)c(C)c1NC(=O)COc1ccc(F)cc1Br,.,.,1,-17,-22,7,1,.,
COc1ccc(Cn2nnc3ccccc32)cc1,.,i,2,-2,8,1,-10,.,
O=C(O)c1cc(NS(=O)(=O)c2cccs2)cc(NS(=O)(=O)c2cccs2)c1,.,.,-3,4,-23,-5,-20,.,
NC(=O)C1CCN(C2OC(=O)c3ccccc32)CC1 (stereo not given),1,i,3,5,-3,-24,.,2,
Cc1ccc(S(=O)(=O)N2CCN(C(=O)NCc3ccc(F)cc3)CC2)c(C)c1,-10,i,3,-4,-12,13,-7,2,
CN(C(=O)CSc1nnc(Cc2ccccc2F)n1N)C1CCS(=O)(=O)C1 (stereo not given),-2,i,-2,-1,-7,-18,.,1,
CS(=O)(=O)N(CC(=O)NCC1CCCO1)c1cc(Cl)ccc1Cl (stereo not given),-2,i,2,6,.,-9,.,1,
CCOc1ccc(C2C=C(c3ccc(F)cc3)Nc3ncnn32)cc1 (stereo not given),37,i,-10,-4,-1,-7,.,44,
Cc1ccccc1C(=O)N1CCC(C(=O)Nc2ccc(C(C)C)cc2)CC1,1,i,2,-12,20,5,38,9,
CSc1ncnc2c1ncn2CCCNCC1CCCO1 (stereo not given),.,.,2,7,.,-7,-2,.,
O=C(COC(=O)c1cccnc1Cl)c1ccc(Cl)cc1Cl,4,i,2,6,-7,-36,-8,-13,
CC(=O)c1ccc(N2CCN(C(=O)[C@H](C)NC(=O)c3ccccc3Cl)CC2)cc1,-5,i,-1,-3,2,-6,5,1,
Cc1oc(-c2ccccc2F)nc1CN1CCC(C(=O)NC2CCCCCCC2)CC1,-1,i,-2,0,.,-13,.,1,
Cc1ccc(N=C2NC(=O)/C(=C/c3cccs3)S2)cc1C,58,i,-42,2,11,-12,-212,8,eIF4H FP inh retest=-17;PABP FP inh retest=-1
COc1ccc(C(=O)COC(=O)CN2C(=O)C3CC=CCC3C2=O)c(OC)c1 (stereo not given),.,.,-3,3,-6,-6,.,.,
CCOC(=O)c1c(-c2ccc(OC)cc2)csc1NC(=O)CCN1CCOCC1,6,i,-1,-4,-6,.,7,-16,
CC(C)c1cc(C(=O)N2CCCC(Nc3ccc(F)c(F)c3)C2)nc(N)n1 (stereo not given),-5,i,3,1,-16,-4,.,3,
CCOC(=O)CN(C(=O)CNC(=O)c1ccco1)C(C(=O)NC1CCCCC1)c1cccnc1 (stereo not given),8,.,3,6,-12,-8,13,0,
S=c1nc[nH]c2c1cnn2-c1ccccc1,0,+,2,-3,41,-10,-18,-2,

# In the list so far, six contain two or more sulfur atoms.
SMILES,eIF4H FP inh,Rce1 inh,MT1-MMP act inh,MT1-MMP act inh RFP,CSC inhib,UUG fidelity,HIV Env fusion,PABP FP inh,others
COCc1nnc(NC(=O)c2sc3ccccc3c2Cl)s1,-4,i,5,5,5,-17,-31,6,
CCCS(=O)(=O)NC(=O)C1(C)CCCN(C(=O)c2cc(-c3cccs3)oc2C)C1 (stereo not given),.,.,3,-2,.,11,-42,.,
Cc1nc2sccn2c(=O)c1S(=O)(=O)NCc1ccccc1,-8,i,3,0,.,-8,-2,0,
O=C(O)c1cc(NS(=O)(=O)c2cccs2)cc(NS(=O)(=O)c2cccs2)c1,.,.,-3,4,-23,-5,-20,.,
CN(C(=O)CSc1nnc(Cc2ccccc2F)n1N)C1CCS(=O)(=O)C1 (stereo not given),-2,i,-2,-1,-7,-18,.,1,
Cc1ccc(N=C2NC(=O)/C(=C/c3cccs3)S2)cc1C,58,i,-42,2,11,-12,-212,8,eIF4H FP inh retest=-17;PABP FP inh retest=-1

# (next part)
SMILES,eIF4H FP inh,Rce1 inh,MT1-MMP act inh,MT1-MMP act inh RFP,CSC inhib,UUG fidelity,HIV Env fusion,PABP FP inh,others
CC(CNC(=O)CN1C(=O)NC2(CCOc3ccccc32)C1=O)c1ccccc1 (stereo not given),.,.,-1,0,.,-7,-22,.,
CC1(C)CC(=O)C2=C(C1)Nc1cc(C(=O)c3ccccc3)ccc1NC2c1ccccn1 (stereo not given),4,i,-10,-8,-3,.,-10,-2,
CC(C)c1ccc(NC(=O)C2CC(=O)N=C(N)S2)cc1 (stereo not given),5,i,-2,2,.,-23,-37,-3,
CCOc1ccc(S(=O)(=O)N2CCN(c3ccccc3OC)CC2)c2cccnc12,2,i,5,-4,4,6,.,-5,
O=C(O)/C=C/c1cn(-c2ccccc2)nc1-c1ccc(-c2ccc([N+](=O)[O-])cc2)o1,45,i,-9,0,36,-19,-13,19,
CCN(CC)c1ccc(CNc2nc3ccccc3n2CCN2CCCCC2)cc1,-3,i,-22,-28,78*,.,8,-8,
CCO/C=C/C(=O)N(C)CCC#N,-2,.,4,3,21,-8,.,7,
CCCCn1nc(C(=O)Nc2c(C)n(C)n(-c3ccccc3)c2=O)c2ccccc2c1=O,.,.,-3,3,.,-6,5,.,
Cc1ccc(S(=O)(=O)Cc2cc(F)c([N+](=O)[O-])cc2[N+](=O)[O-])cc1,-3,i,-5,-6,102*,-13,.,2,
CCN1CCN(S(=O)(=O)c2ccc3[nH]c(=O)oc3c2)CC1,-4,i,-2,3,-7,-21,-13,-3,
N#Cc1nc(COc2cccc(Cl)c2)oc1NCc1ccco1,-3,i,0,4,4,2,-11,11,
CCNC(=O)C1CCCN(C(=O)c2ccccc2)CC1 (stereo not given),.,.,-4,-1,.,-11,-15,.,
COCc1cc(C)nc2sc(C(=O)Nc3cccc(OC)c3)c(N)c12,2,i,-3,-2,-6,-20,-80,0,
Cc1ccc(-c2csc3nc(CSc4nnc(-c5ccc(Cl)cc5)n4C)[nH]c(=O)c23)cc1,-6,i,-4,-5,-10,.,.,6,
Cc1nn(C)c(C(=O)Nc2ccc(Cl)c([N+](=O)[O-])c2)c1Cl,5,i,0,2,-9,.,-30,4,
C=CCSc1nnc2c(n1)OC=Nc1ccc(Br)cc1-2,6,.,2,-1,-4,-15,.,13,
Cc1nn(CC(=O)O)c(C)c1[N+](=O)[O-],4,i,-2,1,0,-15,-27,9,
S=C(NNc1ccnc2cc(Cl)ccc12)Nc1ccc(Cl)cc1Cl,-12,i,-6,-17,28,.,-16,-6,
O=C(Nc1ccc(O)cc1)c1cc(S(=O)(=O)N2CCCC2)ccc1Cl,-8,i,1,-9,-16,-15,10,-3,
COC(=O)c1ccc2nc(-c3ccc(C)cc3)c(Cc3ccccc3OC)n2c1,.,.,-5,1,.,-4,-73,.,
CCOC(=O)c1cccc(NC(=O)CSc2nc3ccccc3c(=O)n2CCOC)c1,-4,.,-1,-8,.,-29,-23,-3,
Cc1ccc(OCc2ccc(C(=O)Nc3nc4ccccc4n3Cc3ccccc3)o2)c([N+](=O)[O-])c1,8,i,0,-6,13,-15,-5,-8,
COc1ccc(C2C(C(=O)N3CCCCC3)CC(=O)N2c2ccc(OC)cc2)cc1 (stereo not given),2,.,-2,4,-4,-3,-8,-3,
CCSc1nnc(NC(=O)CSc2nnc(CNC(=O)c3ccc(OC)cc3)o2)s1,5,i,0,-1,-3,.,-1,-10,
CC(C)(C)n1nnnc1CN1CCSCC1,-14,i,0,2,-15,-20,-47,13,

# Five compounds picked at random from those above:
SMILES,eIF4H FP inh,Rce1 inh,MT1-MMP act inh,MT1-MMP act inh RFP,CSC inhib,UUG fidelity,HIV Env fusion,PABP FP inh,others
CCOc1ccc(S(=O)(=O)N2CCN(c3ccccc3OC)CC2)c2cccnc12,2,i,5,-4,4,6,.,-5,
O=C(Nc1ccc(O)cc1)c1cc(S(=O)(=O)N2CCCC2)ccc1Cl,-8,i,1,-9,-16,-15,10,-3,
CCCCn1nc(C(=O)Nc2c(C)n(C)n(-c3ccccc3)c2=O)c2ccccc2c1=O,.,.,-3,3,.,-6,5,.,
CC(C)(C)n1nnnc1CN1CCSCC1,-14,i,0,2,-15,-20,-47,13,
N#Cc1nc(COc2cccc(Cl)c2)oc1NCc1ccco1,-3,i,0,4,4,2,-11,11,

# Later entries.
SMILES,eIF4H FP inh,Rce1 inh,MT1-MMP act inh,MT1-MMP act inh RFP,CSC inhib,UUG fidelity,HIV Env fusion,PABP FP inh,others
COc1ccc(OC)c(CNC(=O)c2ccc(C)c(NC(=O)C3=C(C)OCCS3)c2)c1,6,i,-2,-1,-3,-8,-20,-4,
CC(=O)C1CCC2C3CCC4CC(=O)CCC4(C)C3C(C)(O)CC12C (stereo not given),.,.,0,-1,.,5,-69,.,
COc1cc(NS(=O)(=O)c2cc3[nH]c(=O)c(=O)[nH]c3cc2C)cc(OC)c1OC,0,i,0,2,.,-26,13,10,
CCCCC(C(=O)NC(=O)NCc1ccccc1)N1C(=O)c2ccccc2C1=O (stereo not given),-4,i,-4,1,-9,6,25,-1,
Cc1nc(C(=O)N2CCC(n3nccc3NC(=O)Nc3ccccc3Cl)CC2)cs1,-4,i,-1,3,-4,-11,1,-2,
O=C(CC(c1ccc(F)cc1)c1ccco1)N1CCOCC1 (stereo not given),4,i,2,4,-13,-36,.,14,
COc1ccc(-n2cnnc2SCC(=O)NCc2cccs2)cc1,1,i,0,0,-19,7,.,2,
Cc1ccc(S(=O)(=O)N2CCCC(NC(=O)N3CCN(c4ccccc4)CC3)C2)cc1 (stereo not given),-13,i,-2,-5,-13,19,.,-4,
Cc1ccc(-c2cc(C(=O)OCC(=O)N(C)c3c(N)n(Cc4ccccc4)c(=O)[nH]c3=O)c3ccccc3n2)o1,.,i,-6,-5,-12,-12,14,.,
CCOc1ccc(N(CC(=O)NCc2ccccc2Cl)S(=O)(=O)c2c(C)noc2C)cc1,-7,i,-3,-2,26,-9,25,3,
Cc1ccc(C(OC(=O)c2ccco2)C(=O)NCc2cccs2)cc1 (stereo not given),1,i,3,9,-12,-10,-418,-4,
Cc1nnc(SCC(=O)Nc2ccccc2N2CCOCC2)s1,2,i,-2,2,-1,-10,4,-3,
Cc1nn(-c2ccccc2)c(Cl)c1/C=N/NC(=O)c1ccc(CNc2ccccc2)o1,-5,i,1,2,13,.,-20,0,

# Source: PubChem BioAssay
